# StopGo RLuc: FMDV 2A StopGo reporter, Renilla signal | Potency, µM (titrated, usually from 57.5 µM), without a hit: at the highest dose signal change, negative = less light | AID 1745857 | 120,000 tested, 0.32% active | HEK cells with a luciferase reporter of 2A StopGo recoding; active means well fitted falling curve with a large enough effect; inconclusive means small, poorly fitted or top-dose-only effect; inactive means no such curve, though single readings can be large or run the other way; note: nearly all actives have a fitted effect of over 55% in size; overnight with compound
# StopGo FLuc: FMDV 2A StopGo reporter, firefly signal; 120,000 tested, 0.23% active; Potency, µM (highest dose often 57.5 µM), without a hit: at the highest dose signal change, negative = less light; HEK cells with a luciferase reporter of 2A StopGo recoding; active = well fitted falling curve with a large enough effect; inconclusive = small, poorly fitted or top-dose-only effect; inactive = no such curve, though single readings can be large or run the other way; note: nearly all actives have a fitted effect of over 60% in size; overnight with compound
# The depositor's hits bear a star; ? = inconclusive; & = joins results of further samples; [ ] = remark or other dose. % is set by controls: 0 for no effect and ±100 for the full control effect; potency is the fitted concentration of half-maximal effect. Rows were taken by chance; any-hit rate near 0.53%.
# Start of the data: the first 5 records, to show the layout:
SMILES,StopGo RLuc,StopGo FLuc
O=C(/C=C/c1cccs1)c1ccc2ccccc2c1,68%[activator],87%[activator]
Cc1noc(C)c1C(=O)OC(C)C(=O)NC1CCCC1 (stereo not given),-5%,-1%
Cc1cc(C)cc(NC(=S)NCCO)c1,0%,1%
Cc1ccc(C)c(Oc2coc3cc(OCC(=O)OCC(C)C)ccc3c2=O)c1,-1%,4%
COc1ccc(-c2noc(-c3ccc(NCc4cccnc4)c([N+](=O)[O-])c3)n2)cc1OC,5%,31%[activator]

# The listing, from the first entry:
SMILES,StopGo RLuc,StopGo FLuc
O=C(/C=C/c1cccs1)c1ccc2ccccc2c1,68%[activator],87%[activator]
Cc1noc(C)c1C(=O)OC(C)C(=O)NC1CCCC1 (stereo not given),-5%,-1%
Cc1cc(C)cc(NC(=S)NCCO)c1,0%,1%
Cc1ccc(C)c(Oc2coc3cc(OCC(=O)OCC(C)C)ccc3c2=O)c1,-1%,4%
COc1ccc(-c2noc(-c3ccc(NCc4cccnc4)c([N+](=O)[O-])c3)n2)cc1OC,5%,31%[activator]
O=C(CSc1nc2cc([N+](=O)[O-])ccc2o1)Nc1ccc(Cl)cc1,51%[activator],60%[activator]
COc1ccc(Oc2nc(-c3ccccc3O)nc3ccccc23)cc1,-3%,0%
COc1ccc(CCNC(=O)Cc2c(C)c3c(OC)cc(C)cc3oc2=O)cc1,-7%,-1%
CCOCCSc1c(C)cnc2c1c(=O)n(C)c(=O)n2C,-13%,3%
O=S(=O)(Nc1nc2ccccc2nc1Nc1cccc(F)c1)c1cccs1,-1%,-4%
O=C(NCCCc1ccccc1)C1CCCN(C(=O)Cc2c[nH]c3ccccc23)C1 (stereo not given),-5%,-13%
CCn1c2ccccc2c2cc(CN3CCN(Cc4ccccc4F)CC3)ccc21,0%,7%
CN(CCC#N)C(=O)COC(=O)c1nn(-c2ccccc2)c(=O)c2ccccc12,14%,10%
CCOc1ccccc1NC(=O)Cn1c(=O)n(Cc2ccccc2)c(=O)c2c(C)c(C)sc21,-13%,4%
COc1cccc(CNC(=O)Cn2ncc3c(=O)oc4ccccc4c32)c1,-17%,-11%
Cc1ccc(S(=O)(=O)N2CCc3cc(C(=O)N(C)Cc4ccccc4)ccc32)cc1,30%[activator],?
CCOC(=O)c1sc(Nc2cc(C)ccc2C)nc1C(F)(F)F,2%,-2%
Cc1cc(C)n(-c2nc3ccccc3nc2Nc2ccc(N(C)C)cc2)n1,-6%&-3%,1%&-2%
O=C(O)c1ccc(Cn2c(SCc3ccc(F)cc3)nc3ccncc32)cc1,-4%,-6%
Cc1cccc(N2CCN(C(=O)c3cnn(-c4ccccc4)c3C3CCN(C(=O)OC(C)(C)C)CC3)CC2)c1C,-15%,-22%
COc1ccc(-c2c(C)c3ccc(O)c(CN4CCOCC4)c3oc2=O)cc1OC,20%,-8%
CC(=O)N1CCc2cc(Br)cc(S(=O)(=O)N3CCC(C)CC3)c21,-13%,-13%
COc1cccc2cc(-c3cc(=O)oc4ccc(C(C)C)cc34)oc12,-10%,40%[activator]
O=C1CC(c2c(F)cccc2Cl)c2c(ccc3ccccc23)N1 (stereo not given),31%[activator],28%
O=S(=O)(Cc1cccc(F)c1)Cc1cc(-c2ccccc2)on1,10%,49%[activator]
Cc1onc(-c2ccccc2Cl)c1C(=O)Nc1cccc(C(=O)NC(C)(C)C)c1,5%,-5%
COc1cc(OC)cc(OC(=O)C2CCCCC2)c1,-11%,-2%
O=C(Nc1ccc(F)cc1)Nc1ccc2snnc2c1,?,1%
COc1ccccc1NC(=O)CSCc1cc(=O)c2ccccc2[nH]1,-11%,7%
CCOC(=O)COC(=O)c1cc2c(s1)-c1ccc(OC)cc1CC2,-4%,24%
Cc1oc2c(c1C(=O)Nc1cccc(Br)c1)C1=NCCN1C=N2,-1%,23%
COc1ccc(NC(=O)CN(C)S(=O)(=O)c2ccc3[nH]c4c(c3c2)CCCC4)cc1Cl,-21%,-10%
N#Cc1ccc(CS(=O)(=O)Cc2ccc(Cl)c(Cl)c2)cc1,0%,0%
Cc1csc(CNC(=O)c2ccc(C)c(C)c2)n1,11%,149%[activator]
CCCCCn1nc(C(=O)Nc2ccc3oc(C)nc3c2)c2ccccc2c1=O,40%[activator],165%[activator]
Cc1ccc(-c2cc(C(=O)NCC(C)C)c3ccccc3n2)o1,-9%,9%
O=c1c(-c2cc(-c3ccccc3)nc3c2COc2ccccc2-3)coc2ccc(Cl)cc12,-3%,-6%
O=C(NCCc1csc(-c2ccc(F)cc2)n1)c1ccc(Br)o1,-16%,-26%
C/C(=N\NC(=O)C1CCCCC1)c1ccc2ccccc2c1,22%,5%
COc1ccc(Oc2c(C)oc3cc(OCC(=O)O)ccc3c2=O)cc1,3%,-9%

# Retrieved one by one from the list above:
SMILES,StopGo RLuc,StopGo FLuc
Cc1ccc(-c2cc(C(=O)NCC(C)C)c3ccccc3n2)o1,-9%,9%
N#Cc1ccc(CS(=O)(=O)Cc2ccc(Cl)c(Cl)c2)cc1,0%,0%
COc1ccc(Oc2c(C)oc3cc(OCC(=O)O)ccc3c2=O)cc1,3%,-9%

# Next structures.
SMILES,StopGo RLuc,StopGo FLuc
Cc1c(C(=O)Nc2ccccc2Cl)oc2ccc(S(=O)(=O)N3CCCCCC3)cc12,-8%,-17%
Cc1cccc(NC(=O)c2ccccc2NC(=O)CN2CCN(S(=O)(=O)c3cccs3)CC2)c1,6%,0%
CN1Cc2nnn(Cc3ccccc3)c2-c2cc(N3CCCC3)ccc2S1(=O)=O,120%[activator],-3%
Cc1cc2n(n1)C(c1ccsc1)Nc1c(C)cccc1-2 (stereo not given),-8%,-7%
Cc1nnc(NC(=O)c2cccn(Cc3ccccc3)c2=O)s1,-3%,3%
Cn1nc(C(=O)NCc2ccccc2Cl)c2c1-c1ccccc1SC2,18%&-1%,10%&-10%
Cc1ccc2c(c1)c(=O)c(S(=O)(=O)c1ccc(F)cc1)cn2CC(=O)Nc1ccc2c(c1)OCO2,1%,-25%
COc1cc(/C=C/c2nc(C#N)c(NCc3ccc(F)cc3)o2)cc(OC)c1OC,102%[activator],0%
COC(=O)c1ccc(Oc2coc3cc(OC(=O)c4ccccc4)ccc3c2=O)cc1,-6%,7%
CC1=C(C/C=C(\C)CCC[C@H](C)CCC[C@H](C)CCCC(C)C)C(=O)c2ccccc2C1=O,-13%,-2%[11.5 µM]

# Some of the entries so far, with each value named:
COc1cc(/C=C/c2nc(C#N)c(NCc3ccc(F)cc3)o2)cc(OC)c1OC
  StopGo RLuc: 102%[activator] | StopGo FLuc: 0%
COC(=O)c1ccc(Oc2coc3cc(OC(=O)c4ccccc4)ccc3c2=O)cc1
  StopGo RLuc: -6% | StopGo FLuc: 7%
CC1=C(C/C=C(\C)CCC[C@H](C)CCC[C@H](C)CCCC(C)C)C(=O)c2ccccc2C1=O
  StopGo RLuc: -13% | StopGo FLuc: -2%[11.5 µM]

# Next compounds follow.
SMILES,StopGo RLuc,StopGo FLuc
O=Cc1cccn1-c1cc(Cl)c(Cl)cc1Cl,-7%[1.06 µM],19%
CC(Sc1nc(N)cc(N)n1)C(=O)c1ccc(F)c(F)c1 (stereo not given),0%,15%
Cc1ccc2c(c1)C(=O)C(=O)N2CCOc1ccccc1C,22%,18%
CCc1ccc(NS(=O)(=O)c2c(C)nc3sc(CC)nn3c2=O)cc1,30%[activator],-2%
CN(C)CCNc1ncnc2c1cnn2-c1cccc(Cl)c1,11%,187%[activator]
CCc1cccc(NC(=O)CN(C)Cc2ccc(C(F)(F)F)cc2)c1,6%,10%
NC(=O)NC1NC(=O)NC1=O (stereo not given),-12%,-5%[11.5 µM]
COc1ccc(S(=O)(=O)Oc2ccc3c(c2)O/C(=C\c2cccc(C)c2)C3=O)cc1,5%,-1%
O=S1(=O)C=C(Sc2nc3ccccc3o2)c2ccccc21,?,14%
COc1nc2ccccc2cc1-c1noc(-c2ccccc2)n1,2%,81%[activator]
COc1cccc(CNC(=O)CSc2nnc(C)c3c(C)n(-c4ccccc4)nc23)c1OC,-20%,-11%
COC(=O)C1CN(Cc2ccc(Cl)cc2)CCS(=O)(=O)N1Cc1cn(Cc2ccc(Cl)cc2)nn1 (stereo not given),-28%,-28%
CC(C)CC(NC(N)=O)C(=O)NCc1ccc(C(F)(F)F)cc1 (stereo not given),0%,7%
COc1ccc(S(=O)(=O)Oc2ccc3cc(-c4ccccc4)c(=O)oc3c2)cc1,17%,1%
Cc1cc(C)cc(OCCNC(=O)Cn2nc(C)c3ccccc3c2=O)c1,-6%,-1%
N#CC(C(=O)CCc1ccccc1)C(=O)NC1CCCCC1 (stereo not given),32%[activator],35%[activator]
Clc1ccc(OCc2ccc(-c3nc(-c4ccc(Br)o4)no3)o2)cc1,16%,22%
COc1ccc(OCC(=O)Nc2nonc2C)cc1,7%,14%
COc1ccc(-c2cc(C(F)(F)F)nc(SCC(=O)NCCc3ccc(OC)c(OC)c3)n2)cc1,-9%,-9%
Cc1cccc(N(C)C(=O)CSc2nc3ncccc3o2)c1,-16%,-1%
COc1cc(NS(=O)(=O)c2ccc3[nH]c4c(c3c2)CCCC4)cc(OC)c1OC,-9%,?
COc1cccc2cc(-c3nnc(Nc4c(F)cccc4F)s3)c(=O)oc12,2%,0%
O=c1cc(CSc2ccc3ccccc3n2)nc2ccccn12,-22%,68%[activator]
O=C(CCS(=O)(=O)c1nc(-c2ccc3c(c2)OCO3)cc(C(F)(F)F)n1)Nc1ccccc1F,-6%,-6%
COc1cc(NC(=O)NCCN2CCN(c3ccccc3)CC2)cc(OC)c1OC,0%,10%
COc1ccc(-c2c(C)oc3cc(OCc4ccccc4)ccc3c2=O)cc1OC,?,?
COc1ccc(C(CNC(=O)CN2CCNC(=O)C2)c2c[nH]c3ccccc23)cc1 (stereo not given),0%,0%
O=C(CC1(O)C(=O)N(C/C=C/c2ccccc2)c2ccccc21)c1ccccc1 (stereo not given),60%[activator],-8%
NC(=O)c1ccccc1OC/C=C/c1ccccc1,?,0%
Cc1nc(C23CC4CC(CC(C4)C2)C3)co1,-15%,12%
Cc1sc2c(c1C)c1nc(-c3ccco3)nn1c(=O)n2Cc1ccccc1,5%,2%
CC(=O)c1ccc(NC(=O)c2ccccc2SC(C)C)cc1,7%,85%[activator]
Clc1ccc(-c2noc(C(c3ccccc3)c3ccccc3)n2)cc1,25%,16%
Cc1ccccc1CNC(=O)c1ccc(-c2nc(CS(=O)(=O)c3ccccc3)c(C)o2)cc1,-5%,?
Cn1ccnc1C(=O)c1ccc(NC(=O)C(=O)NC2CCCCC2)cc1,-6%,14%
COc1ccccc1CNC(=O)CN1C(=O)CSc2ccc(S(=O)(=O)N3CCCC3)cc21,35%[activator],-18%
CC1=C(C(=O)Nc2cccnc2)C(c2ccccc2)n2nc(-c3ccc(O)cc3)nc2N1 (stereo not given),-15%,-14%
CCC(CC)C(=O)N1CCN(C(=O)c2ccccc2C(=O)c2ccc(F)cc2)CC1,-5%,-1%
COc1ccc(-c2nc(C)c(CCNC(=O)c3cccs3)s2)cc1OC,24%,345%[activator]
COc1ccc(C(=O)c2oc3ccccc3c2NC(=O)COc2cccc(C)c2)cc1,-6%,-3%
Cc1ccc(C)c(N2CCN(c3nc4ccccc4n4c(C)nnc34)CC2)c1,-15%,-14%
CCC(C)(C)NC(=O)CC(c1ccccc1)c1ccccc1,18%,0%
CCC(=O)N1c2ccccc2CC1C(=O)N1CCN(c2cccc(OC)c2)CC1 (stereo not given),-16%,-10%
CC(Sc1nnnn1C)C(=O)c1ccc(Br)cc1 (stereo not given),4%,44%[activator]
CCn1c(SCC(=O)Nc2ccc(OC)cc2)nc2nc3c(cc2c1=O)COC(C)(C)C3,8%,16%
CC(C)c1ccc(C(C(=O)NC2CCCC2)N(C(=O)c2cnccn2)c2cccs2)cc1 (stereo not given),20%,26%
N=C1N(C(=O)OCc2ccccc2)/C(=C\C2=CCCCC2)C(Cc2ccccc2)N1Cc1ccccc1 (stereo not given),0%,-2%
Fc1cccc(Cl)c1CSc1ccc(-c2ccccn2)nn1,-28%,60%[activator]
Cc1ccccc1C(=O)N(C)C1CCN(CCc2ccccn2)CC1,-15%,34%[activator]
CN1CCc2nc3sc(C(=O)c4ccc(F)cc4)c(N)c3cc2C1,-8%&-12%,79%&34%[activator]
# Next part
SMILES,StopGo RLuc,StopGo FLuc
COc1ccc(NC(=O)CSc2nnc(NC(=O)Nc3ccc(OC)cc3)s2)cc1,-12%,43%[activator]
COc1cccc(-c2cc(C(=O)Nc3cc(OC)ccc3OC)[nH]n2)c1,8%,139%[activator]
CN(C(=O)CSc1nc2c(=O)[nH]cnc2n1CC1CCCO1)c1ccccc1 (stereo not given),25%,27%
COc1cccc(C(=O)c2cn(CC(=O)Nc3cc(Cl)c(OC)cc3OC)c3nc(C)ccc3c2=O)c1,-7%,-5%
CCC(=O)N1CCc2cc(CNS(=O)(=O)c3ccc(CC(C)C)cc3)ccc21,-23%,-31%
Cc1cccc(OCC(=O)NCc2ccc3c(c2)CCN3C(=O)c2ccccc2)c1,5%,-5%
CCCCS(=O)(=O)CCSS(=O)(=O)O,9%,5%
Cc1ccc2oc(-c3cc(NC(=O)CC(C)C)ccc3Cl)nc2c1,5%&-2%,25%&19%
CCN(CC)CCNC(=O)CCN1C(=O)c2ccccc2C1c1c(C)[nH]c2ccccc12 (stereo not given),-13%,-13%
CCc1nnc(NC(=O)c2nc(S(C)(=O)=O)ncc2Cl)s1,-22%,-14%
C=CCNC(=O)C(C)OC(=O)c1cn(C)c2ccccc12 (stereo not given),1%,9%
Cn1c(SCC(=O)Nc2ccc(Br)cc2)nc(O)cc1=O,-14%,-9%
C=CCn1c(N(C)Cc2ccccc2)nc2c1c(=O)n(C)c(=O)n2C,?,?
COc1ccc(COCC(O)Cn2nc(-c3cc(C)ccc3C)c3ccccc3c2=O)cc1 (stereo not given),4%,-8%
C=CC[N+](CC#CCO)(CCCC)CCCC,-4%[1.06 µM],?
